Screening results deposited in PubChem BioAssay by Johns Hopkins Ion Channel Center.
KCNQ2 block: KCNQ2 channel blockers in CHO-K1 cells – cell-based, FluxOR thallium flux, B-score, primary screen (AID 2156); O88943; 310,000 tested, 1.1% active; B-score at 10 µM; 20 min; active compounds read low; only compounds with negative scores are shown here; some inactives read as strong as hits;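 active = fluorescence ratio B-score at most minus 3 library SDs, with starting brightness B-score within 2 library SDs, cut at about -5.5 in these data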
Target sequence (O88943 whole entry, looked up): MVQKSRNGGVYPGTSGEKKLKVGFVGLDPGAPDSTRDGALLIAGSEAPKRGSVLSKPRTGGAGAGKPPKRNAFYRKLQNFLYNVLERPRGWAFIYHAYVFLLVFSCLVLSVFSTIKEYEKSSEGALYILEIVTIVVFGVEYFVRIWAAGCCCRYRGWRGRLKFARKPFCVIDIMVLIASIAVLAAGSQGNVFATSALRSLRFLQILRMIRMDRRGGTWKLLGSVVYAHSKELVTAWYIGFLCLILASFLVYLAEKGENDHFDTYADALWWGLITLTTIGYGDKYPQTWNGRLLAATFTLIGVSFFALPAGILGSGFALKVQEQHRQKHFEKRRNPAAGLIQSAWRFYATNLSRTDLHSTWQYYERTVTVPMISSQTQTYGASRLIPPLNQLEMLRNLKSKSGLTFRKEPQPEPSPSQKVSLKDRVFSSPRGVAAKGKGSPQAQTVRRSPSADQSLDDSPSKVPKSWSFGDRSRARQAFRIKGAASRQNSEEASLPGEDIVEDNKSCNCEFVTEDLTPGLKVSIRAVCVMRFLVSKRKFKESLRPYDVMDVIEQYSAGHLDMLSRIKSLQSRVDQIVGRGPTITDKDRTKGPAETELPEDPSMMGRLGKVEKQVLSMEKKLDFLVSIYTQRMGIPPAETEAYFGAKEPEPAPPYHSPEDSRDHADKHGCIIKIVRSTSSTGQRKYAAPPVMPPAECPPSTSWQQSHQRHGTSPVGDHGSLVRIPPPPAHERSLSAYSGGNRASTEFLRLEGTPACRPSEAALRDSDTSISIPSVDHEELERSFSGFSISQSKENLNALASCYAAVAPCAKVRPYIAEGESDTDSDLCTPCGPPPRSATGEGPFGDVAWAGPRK
KCNQ2 block baseline: recorded beside KCNQ2 block, whose call it bears; B-score; measured here: initial fluorescence intensity artifact check;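 brightness before thallium and not channel activity; 0 = typical well and far values either way flag optical interference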
Starred values were filed as active, the others as inactive; i = inactive.

Every second line gives: KCNQ2 block, KCNQ2 block baseline
- CCC(CO)N=C1CC(C)(C)CC(=O)/C1=C(/O)CCCN1C(=O)c2ccccc2C1=O (stereo unspecified)
 : i, -1.1
- CC(C)NC(=O)Cn1cc(C(=O)COc2ccccc2)c2ccccc21
 : i, -0.56
- Cc1cccc(Nc2c([N+](=O)[O-])c(=O)oc3ccccc23)c1
 : i, 0.95
- CC1CN(C(=O)c2ccc(COc3ccc(C(C)C)cc3)o2)CC(C)O1 (stereo unspecified)
 : i, -0.29
- Clc1ccc2nc(COc3ccccc3)[nH]c2c1
 : i, 0.48
- O=S(=O)(NC1CCCC1)c1ccc(S(=O)(=O)N(Cc2cccs2)CC2CCCO2)cc1 (stereo unspecified)
 : i, -0.96
- CCOC(=O)N1CCN(C(=O)CN(c2cc(Cl)ccc2OC)S(=O)(=O)c2ccccc2)CC1
 : i, 0.79
- O=C(NCC(c1ccco1)N1CCc2ccccc21)c1ccc([N+](=O)[O-])cc1 (stereo unspecified)
 : i, -1.8
- Cc1ccc(SCC(=O)Nc2cccc(-c3nnc(-c4ccco4)o3)c2)cc1
 : i, 2
- COc1ccc(CN2CCN(C(=O)c3cccc(OC)c3OC)CC2)cc1OC
 : i, 0.74
- CCN(CC)C(=O)CCCOc1ccc(Cl)cc1Cl
 : i, -0.68
- COc1ccc(-n2c(C)cc(C(=O)CN3C(=O)NC4(CCCc5sccc54)C3=O)c2C)cc1 (stereo unspecified)
 : i, 0.09
- COc1ccccc1N(CC(O)COc1ccccc1C)S(=O)(=O)c1ccccc1 (stereo unspecified)
 : i, -0.85
- Cc1ccc(C(C[N+](=O)[O-])c2c(-c3ccccc3O)[nH][nH]c2=O)cc1 (stereo unspecified)
 : i, -0.07
- COCCCNC(=O)/C(C#N)=C/c1c(N2CCN(c3cccc(Cl)c3)CC2)nc2c(C)cccn2c1=O
 : i, 1.1
- NC(=O)c1ncc(C(F)(F)F)cc1Cl
 : i, 1.5
- CCN1C(=O)C(CC(=O)Nc2ccc(OC)cc2)N(CCc2ccccc2)C1=S (stereo unspecified)
 : i, -2
- Cc1cc2ccccc2c(=O)n1CC(=O)N1CCN(c2cccc(Cl)c2)CC1
 : i, 0.6
- CC1CC(C)CN(C(=O)c2cccc(S(=O)(=O)Nc3cc(C(F)(F)F)ccc3Cl)c2)C1 (stereo unspecified)
 : i, 0.14
- C=CCn1c(NC(C)c2cc(Cl)ccc2O)nc2ccccc21 (stereo unspecified)
 : i, -0.75

Every second line gives: KCNQ2 block, KCNQ2 block baseline
- Cc1ccc(CNS(=O)(=O)c2ccccc2[N+](=O)[O-])cc1
 : i, -0.27
- CC(OC(=O)/C(C#N)=C/c1ccc(N(C)C)cc1)C(=O)N(C)Cc1ccccc1 (stereo unspecified)
 : i, 2
- CC(C)(Oc1ccc(Cl)cc1)C(=O)NCCN1C(=O)S/C(=C/c2cccnc2)C1=O
 : i, -0.6
- COc1cc(C(=O)Oc2cc(N)n(S(=O)(=O)c3ccccc3)n2)cc(OC)c1OC
 : i, -0.03
- C=CCSc1nc(NC)c2sccc2n1
 : i, -0.22
- O=Nc1c(O)n(Cc2ccc(Cl)cc2Cl)c2ccccc12
 : -8*, 0.02*
- CC(=O)C1=C(O)C(=O)N(c2ccc(O)cc2)C1c1ccc([N+](=O)[O-])cc1 (stereo unspecified)
 : i, 0.32
- CCOC(=O)c1ccccc1NS(=O)(=O)c1ccccc1F
 : i, -2.2
- O=C(O)Cc1coc2cc3c(cc12)CCC3
 : i, 0.54
- CN(C)S(=O)(=O)c1ccc(C(=O)NCc2ccccn2)cc1
 : i, 1.3
- O=C(Nc1ccc2nc3ccccc3nc2c1)c1ccccc1
 : i, 0.01
- CCc1ccc(CNC(=O)C2CCCN(c3nc4ccccc4o3)C2)cc1 (stereo unspecified)
 : i, -1.9
- N#Cc1ccccc1OCCN1C(=O)c2ccccc2C1=O
 : i, 0.12
- O=C(NNC(=O)c1ccc(SCC2CCCO2)c([N+](=O)[O-])c1)c1ccc(Cl)c([N+](=O)[O-])c1 (stereo unspecified)
 : i, -2
- COc1ccc(C(=O)NCCS(=O)(=O)NCc2ccc3c(c2)OCO3)cc1
 : i, -0.05
- CCOC(=O)Nc1cc2c(cc1C(C)=O)OCO2
 : i, 1.5
- Cc1ccc(C)c(NC(=O)c2cc(-c3cc(C)ccc3O)n[nH]2)c1
 : i, -1.3
- CCOc1cc(/C=C\[N+](=O)[O-])ccc1OCC(=O)N1CCOCC1
 : i, 0.61
- O=C(Nc1ccccc1C(=O)N1CCNCC1)c1ccco1
 : i, 1.3
- c1ccc(C(Cc2nc(-c3ccncc3)no2)c2ccccc2)cc1
 : i, -0.37

Structures from the list above that have fluorine:
Every second line gives: KCNQ2 block, KCNQ2 block baseline
- NC(=O)c1ncc(C(F)(F)F)cc1Cl
 : i, 1.5
- CC1CC(C)CN(C(=O)c2cccc(S(=O)(=O)Nc3cc(C(F)(F)F)ccc3Cl)c2)C1 (stereo unspecified)
 : i, 0.14
- CCOC(=O)c1ccccc1NS(=O)(=O)c1ccccc1F
 : i, -2.2

New compounds follow.
Every second line gives: KCNQ2 block, KCNQ2 block baseline
- O=C(CN1CC(=O)Oc2ccccc21)NCc1ccco1
 : i, 0.5
- COc1ccc(NS(=O)(=O)c2ccc(NC(=S)NC(=O)C(C)C)cc2)cc1
 : i, -2.2
- CC1(C)Cc2c(sc3c2c(N)nc(=S)n3Cc2ccc(Br)cc2)CO1
 : i, -1.1
- Cc1cc(Oc2ccccc2)nc(SCC(=O)Nc2ccccc2)n1
 : i, -0.1
- O=S(=O)(Nc1cc(Cl)ccn1)c1ccc(Cl)cc1
 : i, -1
- CSC(=NC#N)N1CCN(c2ccc([N+](=O)[O-])cc2)CC1
 : i, 0.43
- O=C(c1cc(COc2ccc(F)cc2Cl)on1)N1CCCC(c2ccccc2)C1 (stereo unspecified)
 : i, -1.9
- CC(NCC(=O)Nc1cc(S(=O)(=O)N2CCOCC2)ccc1Cl)c1ccc(Cl)cc1Cl (stereo unspecified)
 : i, 0.04
- C(#CC1CCCC1)c1ccc2c(c1)COc1c3ccccc3nn1-2
 : i, 0.01
- O=C(C[C@H]1C(=O)N(CCc2ccccc2)C[C@@H]1Cc1ccccc1)Nc1ccccc1
 : i, 0.06
- CCOc1ccc2ccccc2c1/C=N/NC(=O)CNC(=O)C(c1ccccc1)c1ccccc1
 : i, 0.85
- N#C/C(=C\c1ccc(F)cc1)c1n[nH]c(Cn2cncn2)n1
 : i, -0.13
- CC(=O)c1ccccc1OCCCCN1CCCCC1
 : i, 3.2
- CSc1ccc(/C=N/N2CCN(Cc3ccc(C)cc3C)CC2)cc1
 : i, 0.77
- O=C(NN=C1C2CC3CC1CC(Cl)(C3)C2)c1ccccn1
 : i, -1.4
- CC(=O)NC(=C(Cl)Cl)S(=O)(=O)c1ccccc1
 : i, -0.11
- O=C(CN1C(=O)/C(=C\c2cccc(Br)c2)Oc2ccccc21)NCC1CCCO1 (stereo unspecified)
 : i, -1.8
- O=C(O)C1CC=CCC1C(=O)N1CCCC1 (stereo unspecified)
 : i, 1.7
- COc1ccccc1N1CCN(C(=O)CN(c2ccccc2OC)S(=O)(=O)c2ccccc2)CC1
 : i, -1.1
- CN1CCN(c2ccc([N+](=O)[O-])c(-n3nc(-c4ccccc4)c4ccccc4c3=O)c2)CC1
 : i, -0.75

Profiles as entered above. Values in the order: KCNQ2 block	KCNQ2 block baseline
O=C(NN=C1C2CC3CC1CC(Cl)(C3)C2)c1ccccn1 in the list: i	-1.4
CCOc1ccc2ccccc2c1/C=N/NC(=O)CNC(=O)C(c1ccccc1)c1ccccc1 in the list: i	0.85

(list continues)
Every second line gives: KCNQ2 block, KCNQ2 block baseline
- COc1ccc(S(=O)(=O)CC(=O)c2cc3cc(Br)ccc3oc2=O)cc1
 : i, -0.51
- CC(C)C[C@H](N)C(=O)N1CCC(C(=O)N[C@H](C(=O)NCc2ccc(F)cc2)C(C)C)CC1
 : i, -0.5
- CC(C)c1ccc(OCC(=O)NC(=S)Nc2ccc3c4c(cccc24)CC3)cc1
 : i, -0.76
- O=C(CN1C(=O)S/C(=C\c2ccccc2Cl)C1=O)NCCCn1ccnc1
 : i, 2.9
- CCCn1c(S(=O)(=O)O)nc2ccccc21
 : i, -0.03
- COc1cccc(-c2nc(CS(=O)(=O)CC(=O)NCCCN3CC(C)CC(C)C3)c(C)o2)c1 (stereo unspecified)
 : i, -0.12
- CCCCCn1c(CCCNC(=O)CC)nc2ccccc21
 : i, -1.2
- CCOc1cc(-c2nccc3cc(OC)c(OC)cc23)cc(OCC)c1OCC
 : i, 0.31
- CCC/C=N/NC(=O)CNC(=O)c1ccccc1Cl
 : i, 1.4
- Cc1ccc(NC(=O)CCn2c(=O)[nH]c3ccsc3c2=O)cc1
 : i, 0.16
- COc1cc2ccccc2cc1C(=O)Nc1ccccc1Cl
 : i, 0.2
- COc1cc(C(O)P(=O)(OC2CCCCC2)c2ccc(N(C)C)cc2)cc(OC)c1OC (stereo unspecified)
 : i, 1
- CCOC(=O)COc1ccc2c(c1)c(C(C)=O)c(C)n2-c1ccccc1
 : i, -0.2
- Cc1cc(C)n(C(=O)CCCCCC(=O)n2nc(C)cc2C)n1
 : i, -0.63
- CCOc1ccc(C(=O)NCc2ccccc2OC)cc1
 : i, 0.4
- O=C(Nc1cc(N2CCCCC2)ncn1)c1ccccc1
 : i, -0.83
- O=C(CSc1ccccc1)N(c1ccc(Br)cc1)c1nccs1
 : i, -1.4
- CC(=O)c1ccc(C(=O)N2CCc3c([nH]c4ccccc34)C2c2cccc(C)n2)s1 (stereo unspecified)
 : i, -0.01
- Cc1ccc(S(=O)(=O)N/N=C\C=C\c2ccccc2)cc1
 : i, -0.21
- Cc1ccc(NC(=O)C2CCN(C(=O)[C@@H]3Cc4ccccc4CN3)CC2)c(C)c1
 : i, -0.56

Every second line gives: KCNQ2 block, KCNQ2 block baseline
- COc1ccc(CC(=O)N2CCN(c3ccccc3F)CC2)cc1OC
 : i, 0.58
- CC(C)Cn1c(SCC#N)nc2ccccc2c1=O
 : i, -0.55
- CCOC(=O)c1[nH]ncc1CN1CCCC(C(=O)c2cc(Cl)ccc2OC)C1 (stereo unspecified)
 : i, -1.4
- COCCN1C(=O)c2ccccc2C(C(=O)NCCN(C)C)C1c1ccc(F)cc1 (stereo unspecified)
 : i, 1.5
- O=S(=O)(c1cccc(-c2nnc3n2CCCCC3)c1)N1CCOCC1
 : i, 0.34
- CNC(=S)NNC(=O)c1sccc1OCc1ccccc1
 : i, -1.2
- COC(=O)c1ccsc1NC(=O)CN1CCN(Cc2ccc3c(c2)OCO3)CC1
 : i, -2.2
- CC(=O)Nc1ccc(NC(=S)NC(=O)c2ccc([N+](=O)[O-])cc2)cc1
 : i, 1.4
- CCOC(=O)C1=C(O)C(=O)N(c2ccc(S(N)(=O)=O)cc2)C1c1ccccc1 (stereo unspecified)
 : i, 2.1
- O=C(NCCCCCCNC(=O)OCCO)OCCO
 : i, 0.07
- Cc1c(C)n(Cc2ccccc2)c2ccc(C(=O)OCCCN(C)C)cc12
 : i, -1.3
- Nc1nnc(SCC(=O)Nc2cccc3ccccc23)s1
 : i, -0.2
- CC(=O)c1ccc(N2CCN(CC(O)COC(c3ccccc3)c3ccccc3)CC2)cc1 (stereo unspecified)
 : i, 2.1
- Cn1nc(C(F)(F)F)c(-c2ccc(Br)cc2)c1NC(=O)CSCC(=O)O
 : i, 0.43
- CC(=O)c1cc2c(cc1NC(=O)c1cnc(C)cn1)OCO2
 : i, 0.75
- CCc1cc(=O)oc2cc(C)cc(O)c12
 : i, -2
- Cc1cccc(C)c1NC(=O)C1c2ccccc2Oc2ccccc21
 : i, 0.45
- N#Cc1c(-c2cccs2)cc(-c2ccccn2)nc1N
 : i, 1.9
- CCOc1ccccc1NC(=O)c1ccc(S(=O)(=O)N2CCCCC2)cc1
 : i, 0.76
- c1ccc(-n2c(Cc3cccnc3)nc3cnccc32)cc1
 : i, 0.35

Part of the list above in another layout.
SMILES | KCNQ2 block | KCNQ2 block baseline
COC(=O)c1ccsc1NC(=O)CN1CCN(Cc2ccc3c(c2)OCO3)CC1 | i | -2.2
CC(=O)Nc1ccc(NC(=S)NC(=O)c2ccc([N+](=O)[O-])cc2)cc1 | i | 1.4

Next section.
Every second line gives: KCNQ2 block, KCNQ2 block baseline
- CCOC(=O)C1CCN(C(=O)/C(=C/c2ccccc2)NC(=O)c2ccccc2)CC1
 : i, 1.4
- CC(=O)Oc1ccc2oc(=O)c3c(c2c1)CCCN3C(=O)CN1CCN(c2ncccn2)CC1
 : i, 0.61
- Cc1cc2c(cc1S(=O)(=O)CCC(=O)N(C)Cc1ccccc1)OCC(=O)N2
 : i, 2.5
- CCn1cc(S(=O)(=O)Nc2ccccc2C(F)(F)F)cn1
 : i, -0.04
- O=C(Nc1ccc2c(c1)CCC2)c1ccc(F)c(S(=O)(=O)N2CCOCC2)c1
 : i, 0.22
- Cn1c(SCC(=O)O)nnc1-c1ccc(NC(=O)c2ccc(Cl)c(Cl)c2)cc1
 : i, -0.96
- Cc1cc(NCCCn2ccnc2)n2nc(C)c(-c3ccccc3)c2n1
 : i, 4.3
- O=C(NCc1ccco1)C(c1ccccc1)N(C(=O)Cc1cccs1)c1ccccc1 (stereo unspecified)
 : i, 1.6
- Cc1ccc(N=Nc2ccc(C)cc2NC(=O)Nc2ccccc2F)cc1
 : i, -1
- Nc1cc(=O)n(Cc2ccccc2)c(=O)n1-c1ccc(Cl)cc1
 : i, 0.14
- Cc1csc(NC(=O)C2CCCN(S(=O)(=O)c3ccc(Br)s3)C2)n1 (stereo unspecified)
 : i, 0.06
- Cc1ccc(S(=O)(=O)N2CCC(C(=O)OCc3c(C)noc3C)CC2)cc1C
 : i, -0.34
- Cc1ccc(C2C(C#N)=C(N)N(c3cccnc3)C3=C2C(=O)CCC3)s1 (stereo unspecified)
 : i, 2.5
- COCCCNC(=O)C(=O)NC1CCCCCC1
 : i, 3.3
- CCN(CC)C(=O)Cn1cc(C(=O)C(=O)NCCCn2ccnc2)c2ccccc21
 : i, 2.4
- COC(=O)c1cc(OC)c(OC)cc1NC(=S)N1CCN(Cc2ccccc2)CC1
 : i, -1.7
- O=C(CSc1nc2ccccc2c(=O)n1-c1ccccc1)N1CCCc2ccccc21
 : i, -2.5

The list is partial; the hit share may differ from the screen's.
